Vif A3G: inhibitors of Vif binding to APOBEC3G peptide, primary screen, biochemical, TR-FRET, GST-Vif 1-94, biotin-A3G peptide, dose response retest (AID 1117319). actives 0.57% (n = 260,000). inhibition, %, or IC50 in µM where a hit was titrated. TR-FRET GST-Vif / biotin-A3G peptide binding; higher % means a stronger effect; test concentration not given here; strong numbers were not always called active;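 active = above the screen mean plus three standard deviations and confirmed in dose response; inconclusive = results disagree or hit not tested in dose response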;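 also: Vif residues 1-94 fused to GST binding biotinylated APOBEC3G peptide 110-148; 0% = full assay without inhibitor and 100% = GST in place of GST-Vif; retest series ran down from 100 µM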
RanGTP-Impb inh: disruptors of Ran-importin-beta complex formation – biochemical, FRET, CFP-Ran, YFP-importin-beta, homogeneous, primary screen | cell-free CFP-Ran/YFP-importin-beta FRET ratio | inhibition, % (test concentration not listed) | actives 1.1% (n = 300,000);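 active = most replicates above 15%; inconclusive = exactly half above 15%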;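 also: 0% = DMSO wells and 100% = Ran loaded with GDP instead of GTP; wells of about 40 µL received 100 nL stock; the first replicate is given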
E coli growth: inhibitors of Escherichia coli growth; OD600, 23 h; hits give low values; OD600 absorbance (no concentration beside the values); actives 0.21% (n = 330,000); AID 1053175;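 active = OD600 absorbance below the run mean of sample wells minus 3.6 SD, in any replicate, cut at about 0.56 in these data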;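 also: stock transfer was 300 nL into about 60 µL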
MLL AF4-AF9 inh: blocks AF4 peptide binding to human AF9; P42568; AlphaScreen, biotin-AF4 peptide binding to FLAG-AF9; inhibition, % at 10 µM; actives 0.47% (n = 350,000); AID 651704;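 active = every replicate reaching a set inhibition limit, whatever the replicate mean, cut at about 25% in these data; inconclusive = mean inhibition reaches that limit but some replicates miss it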;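 also: 0% = plate neutral control median and 100% = total signal loss; the record names both 10 and 1 µM as test concentration; the first replicate is given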
Target sequence (P42568 whole entry, looked up): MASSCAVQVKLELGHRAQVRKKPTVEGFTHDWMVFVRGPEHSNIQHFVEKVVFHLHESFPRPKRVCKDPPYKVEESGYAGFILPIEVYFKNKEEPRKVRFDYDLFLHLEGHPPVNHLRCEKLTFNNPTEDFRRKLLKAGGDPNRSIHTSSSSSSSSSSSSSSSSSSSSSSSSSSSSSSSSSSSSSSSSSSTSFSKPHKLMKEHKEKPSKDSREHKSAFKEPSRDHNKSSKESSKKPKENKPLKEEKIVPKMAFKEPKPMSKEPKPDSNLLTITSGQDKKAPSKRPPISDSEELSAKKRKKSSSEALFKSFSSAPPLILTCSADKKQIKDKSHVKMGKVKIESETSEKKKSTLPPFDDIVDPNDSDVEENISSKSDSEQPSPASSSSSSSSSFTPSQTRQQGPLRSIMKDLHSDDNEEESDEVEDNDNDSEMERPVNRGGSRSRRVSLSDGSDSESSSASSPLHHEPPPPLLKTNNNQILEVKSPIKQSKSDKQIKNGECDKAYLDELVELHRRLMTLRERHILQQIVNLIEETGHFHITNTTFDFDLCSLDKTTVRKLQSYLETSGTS
UCH37 inh: blocks the human deubiquitinase UCH37; Q9Y5K5; purified proteasome/UCH37, Ub-AMC cleavage fluorescence; inhibition, % (no concentration beside the values); actives 0.33% (n = 330,000); AID 588478;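 active = mean of two replicates above 20%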;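 also: 0% = compound-free wells with enzyme and 100% = wells lacking proteasome; stock transfer was 100 nL into about 20 µL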
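Assay system: Proteasome-bound UCH37. Buffer or medium: pH 7.4 Tris-HCl (50 mM) with ovalbumin, ATP-MgCl2, DTT. Incubation: 30 min preincubation with enzyme, 25 min cleavage at room temperature. Measured by: fluorescence, ex 355 nm, em 460 nm. Read-out basis: percent inhibition. Control set: wells without proteasome as full block, compound-free enzyme plus substrate as uninhibited.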
FGF22 binding: binders of recombinant human FGF22 by thermal shift | SYPRO orange fluorescence; percent of sucrose octasulfate shift, DMSO zero | calls only at 9.99 µM | actives 1.5% (n = 340,000);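 active = melting point raised past a set limit in the mean and every replicate; inconclusive = no clear call; three in four hits are not shown here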
HNF4A DNA FP: change in binding of human HNF4 alpha to DNA. activity change, % at 10 µM. actives 0.3% (n = 360,000). HNF4a-FITC DNA binding, fluorescence polarization, 1 h. P41235. AID 1224865; in the data active = activity change above about 30%, passing the limit was not always enough;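 also: controls were the assay level and a saturating level of protein; the project sought stronger binding though the title names inhibitors; some compounds called inactive have numbers as strong as hits; positive values seem to mean higher polarization but the record does not say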
Target sequence (P41235 whole entry, looked up): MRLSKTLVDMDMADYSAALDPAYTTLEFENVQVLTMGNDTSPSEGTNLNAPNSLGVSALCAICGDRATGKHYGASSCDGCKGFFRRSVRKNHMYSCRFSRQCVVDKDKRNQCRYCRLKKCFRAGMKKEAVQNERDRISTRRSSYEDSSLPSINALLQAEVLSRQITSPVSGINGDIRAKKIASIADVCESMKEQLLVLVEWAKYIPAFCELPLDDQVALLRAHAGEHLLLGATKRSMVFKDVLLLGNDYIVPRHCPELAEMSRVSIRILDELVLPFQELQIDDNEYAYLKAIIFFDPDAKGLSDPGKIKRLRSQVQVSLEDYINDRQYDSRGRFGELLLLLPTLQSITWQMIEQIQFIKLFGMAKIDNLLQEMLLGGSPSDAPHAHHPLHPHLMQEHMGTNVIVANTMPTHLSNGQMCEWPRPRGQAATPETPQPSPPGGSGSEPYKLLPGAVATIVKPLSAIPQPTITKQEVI
* marks the source's active call; other numbers are inactive results; i = inactive; ? = inconclusive; · = no result given; & = joins results of further samples. Only part of the results is shown; the hit share may differ from the screen's.

1) C#CCOCCOCCOCCNc1nc(N2CCN(C(=O)[C@H](CCC(=O)O)n3cc(C(N)Cc4ccc(O)cc4)nn3)CC2)nc(N2CCN(C(=O)[C@H](CCC(=O)O)n3cc(C(N)CC(C)C)nn3)CC2)n1 (stereo partly specified)
2) NC(=O)N1CCC2(CC1)NC(=O)N(c1ccccc1)N2
3) O=C(Cn1nnc(-c2ccc(F)cc2)n1)Nc1ccc2c(c1)OCCO2
4) Cc1ccn2c(CNCC3COCCO3)c(C(=O)N3CCCCCC3)nc2c1 (stereo unspecified)
5) O=C(c1ccccn1)c1ccc2ccccc2n1
6) CCOc1ccc(S(=O)(=O)N2CCN(C(=O)CN3C(=O)NC(C)(C)C3=O)CC2)cc1
Assay by compound	1	2	3	4	5	6
Vif A3G	?	2%	1%	·	2%	·
RanGTP-Impb inh	?	-2.4	1.6	-1.2	-3.7	·
E coli growth	·	0.71	0.67	0.7	0.7	0.65
MLL AF4-AF9 inh	·	-0.9	-2.0	1.4	·	-6.6
UCH37 inh	2.9	0.2	1.9	2.3	1.5	0.3
FGF22 binding	·	i	i	i	i	i
HNF4A DNA FP	·	-1.9	-1.0	1.0	1.0	-1.6

7) O=C(NCCCN1CCCC1=O)c1ccc2c(c1)NC(=O)c1ccccc1S2
8) O=C(c1cccs1)N1CCN(S(=O)(=O)Cc2ccccc2)CC1
9) COC(=O)c1ccccc1N=Nc1c(C)n[nH]c1C
10) Cc1ccc2c(c1)c1c3n2CC(=C2C(=O)OC(C)(C)OC2=O)NC3CCC1 (stereo unspecified)
11) COC(=O)C[C@H]1C[C@H]2c3cc(NC(=O)Nc4ccc(C(F)(F)F)cc4)ccc3O[C@H]2[C@@H](CO)O1
12) COc1cc(OC)nc(N/N=C(\c2ccccc2)c2ccncc2)n1
Assay by compound	7	8	9	10	11	12
Vif A3G	6%	14%	-7%	?	·	11%
RanGTP-Impb inh	2.9	-0.7	-2.4	-0.2	·	-4.1
E coli growth	0.66	0.69	0.67	0.65	·	·
MLL AF4-AF9 inh	-4.4	·	·	-11	-0.8&2.6	6.9
UCH37 inh	1.4	2.9	10	-9.2	·	·
FGF22 binding	i	·	i	·	i	i
HNF4A DNA FP	-2.9	4.5	-0.8	2.0	-3.4	0.3

13) CN(Cc1ccccc1)C(=O)COC(=O)c1ccc(Br)o1
14) COC(=O)CCCn1nc(NC(=O)COc2ccc(F)cc2)cc1C
15) Cc1cc2cc(CNS(=O)(=O)c3ccc4ccccc4c3)ccc2n1C
16) COc1ccc(C(=O)N/C(=C\c2ccccc2)C(=O)N2CCOCC2)cc1
17) CCOC(=O)CC1=C(C(=O)OCC)C(c2ccncc2)C(C#N)=C(N)O1 (stereo unspecified)
18) CC(C)(C)c1nc2ccccc2c2nnc(SCC(=O)Nc3nccs3)n12
Assay by compound	13	14	15	16	17	18
Vif A3G	-1%	-2%	-7%	-5%	32%	2%
RanGTP-Impb inh	·	4.7	0.5	-1.5	·	?
E coli growth	0.67	0.68	0.76	0.65	0.74	0.74
MLL AF4-AF9 inh	1.7	-6.7	2.4	-0.7	·	·
UCH37 inh	2.5	1.8	2.4	0.7	-0.8	3.3
FGF22 binding	i	i	i	i	·	·
HNF4A DNA FP	0.0	3.3	-3.9	2.9	3.4	1.3

19) Cc1ccc(S(=O)(=O)NC(=O)c2cc(C)n(CCCN3CCOCC3)c2C)cc1
20) O=C(Nc1cc(C(F)(F)F)ccc1Cl)C(Sc1cccc[n+]1[O-])c1ccccc1 (stereo unspecified)
21) O=C(NCc1ccco1)c1c(Cl)cccc1Cl
22) Cc1c(C(=O)Nc2c3c(nn2C(C)(C)C)CS(=O)(=O)C3)cccc1[N+](=O)[O-]
23) CC(C)c1nn2c(N)c(/C=C3\C=Nc4ccccc43)c(=O)nc2s1
24) COc1ccc(NC(=O)OCCN2CCN(Cc3ccccc3)CCC2=O)cc1
Assay by compound	19	20	21	22	23	24
Vif A3G	3%	·	4%	3%	-9%	9%
RanGTP-Impb inh	60*	0.9	·	3.4	?	4.0
E coli growth	0.72	0.69	·	0.67	0.64	0.68
MLL AF4-AF9 inh	·	·	-0.7	-0.1	-1.2	5.4
UCH37 inh	-4.7	4.7	·	2.2	-0.4	1.4
FGF22 binding	·	·	i	i	i	i
HNF4A DNA FP	1.2	3.4	-3.5	-1.7	-0.4	3.6

25) CN(C)S(=O)(=O)c1ccc(N2CCCC2)c(C(=O)N2CCN(S(=O)(=O)c3cccc(F)c3)CC2)c1
26) CCOC(=O)C1(CC2CCCCO2)CCN(Cc2c(C)cc(C)cc2-n2cccn2)CC1 (stereo unspecified)
27) CCCCNC(=O)N(O)C1N(/N=C/c2ccco2)C(=S)SC1(C)C (stereo unspecified)
28) CCCCS(=O)(=O)C(=C1Nc2ccccc2N1)S(=O)(=O)CCCC
29) O=C(NC(=S)NC1CCCCC1)c1ccc(F)cc1
30) CCN(CC)S(=O)(=O)c1ccc(/C=C/C(=O)OCC(=O)c2c(N)n(C)c(=O)n(C)c2=O)cc1
Assay by compound	25	26	27	28	29	30
Vif A3G	-6%	19%	·	1%	·	3%
RanGTP-Impb inh	?	5.3	·	1.3	1.1	4.9
E coli growth	0.67	0.67	·	0.78	0.67	0.68
MLL AF4-AF9 inh	-1.7	-5.8	-1.7	·	2.7	2.6
UCH37 inh	2.7	1.5	·	2.0	5.9	-0.5
FGF22 binding	i	i	i	·	i	i
HNF4A DNA FP	0.2	2.2	-3.5	1.8	-2.2	2.4

31) Cc1ccc(OCCNC(=O)c2ccc3ccccc3n2)cc1
32) O=C(CN1CCOCC1)Nc1ccc(Oc2ccc(NC(=O)CN3CCOCC3)cc2)cc1
33) CCCCn1c(N)c(N(CCC(C)C)C(=O)COC(=O)c2cccnc2SC)c(=O)[nH]c1=O
34) O=C(Cn1nnc2ccccc2c1=O)Nc1cc(C(F)(F)F)ccc1N1CCOCC1
35) Nc1c(Cl)cc(C2=NCCn3nc4ccccc4c32)cc1Cl
36) CCOc1ccc(S(=O)(=O)N2CCN(C(=O)c3cc(S(=O)(=O)N4CCOCC4)ccc3C)CC2)cc1
Assay by compound	31	32	33	34	35	36
Vif A3G	·	9%	-5%	12%	·	2%
RanGTP-Impb inh	-0.3	?	·	-2.0	-5.2	·
E coli growth	0.71	0.74	0.67	0.73	0.68	0.65
MLL AF4-AF9 inh	?	·	-0.3	·	14	0.3
UCH37 inh	5.9	5.6	4.8	0.4	2.0	0.7
FGF22 binding	i	·	i	·	i	i
HNF4A DNA FP	2.4	-3.7	0.5	-2.9	-2.7	-7.5

37) CC(C)(CO)N1CCN(C(=S)Nc2ccccc2)CC1
38) N/C(=N\OC(=O)Cc1cccs1)c1ccc(Br)cc1
39) Cc1ccc([N+](=O)[O-])cc1NC(=O)C1CCN(S(C)(=O)=O)CC1
40) CCOCCCNc1nc2c(C)cccn2c(=O)c1/C=C1\SC(=S)N(CC(C)C)C1=O
41) CN(CC(=O)NCC1CCCO1)S(=O)(=O)c1cc(Cl)ccc1Cl (stereo unspecified)
42) O=S(=O)(c1ccccc1)N1CCCC1c1nc2ccccc2s1 (stereo unspecified)
Assay by compound	37	38	39	40	41	42
Vif A3G	1%	2%	?	-2%	-2%	-3%
RanGTP-Impb inh	0.7	-0.3	-1.5	-1.1	6.3	0.1
E coli growth	0.62	0.71	0.71	0.74	0.73	0.72
MLL AF4-AF9 inh	3.7	-5.2	·	·	·	·
UCH37 inh	2.1	0.5	4.0	5.6	3.1	1.4
FGF22 binding	i	i	·	·	·	·
HNF4A DNA FP	-0.5	2.7	1.9	57*	0.8	-0.6

43) Cc1[nH]c(=O)c(C(=O)c2cc(Cl)ccc2O)cc1C(=O)O
44) COc1ccc(C(=O)NC(=S)Nc2ccc3c4c(cccc24)CC3)cc1OC
45) c1cc(-c2ccc(CN3CCOCC3)cc2)n2ccnc2c1
46) CCN(C(=O)c1cccnc1SC)C12CC3CC(CC(C3)C1)C2
47) COc1ccc(CCNC(=O)COc2ccc(S(=O)(=O)N3CCOCC3)cc2)cc1
48) CCCn1cc(S(=O)(=O)c2ccccc2)c(=O)c2cc(OCC)ccc21
Assay by compound	43	44	45	46	47	48
Vif A3G	17%	0%	·	2%	3%	?
RanGTP-Impb inh	1.0	-2.1	·	-1.1	?	2.7
E coli growth	0.63	0.7	·	0.7	0.63	0.64
MLL AF4-AF9 inh	-2.0	·	-2.9	0.5	·	-0.4
UCH37 inh	7.1	4.7	·	4.4	0.3	-9.1
FGF22 binding	i	·	i	i	·	i
HNF4A DNA FP	1.8	4.9	-5.0	1.6	2.0	4.5

Sorted by length of the SMILES (lowest first): some entries from above.
37) CC(C)(CO)N1CCN(C(=S)Nc2ccccc2)CC1
38) N/C(=N\OC(=O)Cc1cccs1)c1ccc(Br)cc1
45) c1cc(-c2ccc(CN3CCOCC3)cc2)n2ccnc2c1
42) O=S(=O)(c1ccccc1)N1CCCC1c1nc2ccccc2s1 (stereo unspecified)
46) CCN(C(=O)c1cccnc1SC)C12CC3CC(CC(C3)C1)C2
41) CN(CC(=O)NCC1CCCO1)S(=O)(=O)c1cc(Cl)ccc1Cl (stereo unspecified)
48) CCCn1cc(S(=O)(=O)c2ccccc2)c(=O)c2cc(OCC)ccc21
44) COc1ccc(C(=O)NC(=S)Nc2ccc3c4c(cccc24)CC3)cc1OC
Assay by compound	37	38	45	42	46	41	48	44
Vif A3G	1%	2%	·	-3%	2%	-2%	?	0%
RanGTP-Impb inh	0.7	-0.3	·	0.1	-1.1	6.3	2.7	-2.1
E coli growth	0.62	0.71	·	0.72	0.7	0.73	0.64	0.7
MLL AF4-AF9 inh	3.7	-5.2	-2.9	·	0.5	·	-0.4	·
UCH37 inh	2.1	0.5	·	1.4	4.4	3.1	-9.1	4.7
FGF22 binding	i	i	i	·	i	·	i	·
HNF4A DNA FP	-0.5	2.7	-5.0	-0.6	1.6	0.8	4.5	4.9

39) Cc1ccc([N+](=O)[O-])cc1NC(=O)C1CCN(S(C)(=O)=O)CC1
36) CCOc1ccc(S(=O)(=O)N2CCN(C(=O)c3cc(S(=O)(=O)N4CCOCC4)ccc3C)CC2)cc1
Assay by compound	39	36
Vif A3G	?	2%
RanGTP-Impb inh	-1.5	·
E coli growth	0.71	0.65
MLL AF4-AF9 inh	·	0.3
UCH37 inh	4.0	0.7
FGF22 binding	·	i
HNF4A DNA FP	1.9	-7.5

Continued:
49) Nc1nonc1C(=O)NCCc1ccccc1
50) O=C(Cc1c(F)cccc1Cl)N1CCOCC1
51) Cc1ccc(Cn2nc(C)c(NC(=O)CSc3nc4c(c(C(F)(F)F)n3)CCc3ccccc3-4)c2C)cc1
52) COCCNc1nc(N)c([N+](=O)[O-])c(Nc2ccc(F)cc2)n1
53) CCC(C)C(NC(=O)OC(C)(C)C)C(=O)NC(CC(C)C)C(N)=O (stereo unspecified)
54) Cc1c(Br)c([N+](=O)[O-])nn1CC(=O)Nc1cccc2nonc12
55) O=C(CNC(=O)c1ccc(OC(F)F)cc1)Nc1cccc(S(=O)(=O)N2CCCC2)c1
56) Nc1nonc1-n1nnc(C(=O)N/N=C/c2ccc(Cl)cc2Cl)c1CN1CCOCC1
Assay by compound	49	50	51	52	53	54	55	56
Vif A3G	9%	1%	·	-4%	-1%	1%	·	·
RanGTP-Impb inh	1.6	-1.2	1.3	-3.8	-1.1	9.6	13	3.3
E coli growth	0.65	0.65	0.66	0.64	0.67	0.75	0.69	·
MLL AF4-AF9 inh	-2.6	-0.6	-5.9	-2.3	·	1.8	10	2.1
UCH37 inh	4.0	0.5	1.5	6.6	3.0	1.1	3.1	·
FGF22 binding	i	i	i	i	·	i	i	i
HNF4A DNA FP	-2.0	-1.4	0.8	1.6	-0.3	4.3	4.0	-6.4
